# Screening results: PubChem, Broad Institute
# p53 mut binder: binders of human mutant p53; small molecule microarray binding, anti-GST fluorescence; AID 624136; calls only; actives 0.4% (n = 17,000);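 active = compounds whose four printed spots each glow above background more than chance allows, each with a p-value under 7%; compounds were printed on slides so no solution concentration is given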;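 also: about 2 pmol printed per array spot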
# c-Myc SMM: binds human c-Myc on microarray; P01106; small molecule microarray, His-c-Myc binding, anti-His fluorescence; calls only; actives 1.5% (n = 17,000);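 active = spot fluorescence over background with P-value below 7% in all four replicate spots, showing protein binding; compounds were printed on slides so no solution concentration is given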;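 also: score is binary with 100 for all four spots passing and 0 otherwise; about 2 pmol printed per array spot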
# Target sequence (P01106 whole entry, looked up): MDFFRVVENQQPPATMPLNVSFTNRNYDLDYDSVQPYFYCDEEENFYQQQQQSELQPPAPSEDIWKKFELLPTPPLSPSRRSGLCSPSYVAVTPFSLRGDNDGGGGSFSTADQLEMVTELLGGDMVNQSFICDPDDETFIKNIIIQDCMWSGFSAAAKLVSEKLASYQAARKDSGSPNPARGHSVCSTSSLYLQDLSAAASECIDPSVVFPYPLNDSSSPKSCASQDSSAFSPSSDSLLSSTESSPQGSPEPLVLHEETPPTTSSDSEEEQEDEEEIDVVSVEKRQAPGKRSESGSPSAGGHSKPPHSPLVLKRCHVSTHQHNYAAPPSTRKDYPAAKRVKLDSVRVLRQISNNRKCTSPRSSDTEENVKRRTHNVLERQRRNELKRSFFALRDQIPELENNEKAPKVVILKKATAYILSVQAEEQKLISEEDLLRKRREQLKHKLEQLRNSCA
# STAT3 binder: STAT3 (human) binding; calls only; actives 0.2% (n = 17,000); Small molecule microarray, His-STAT3 binding, anti-His fluorescence; P40763;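 active = compounds whose four printed spots each show fluorescence over background unusually high for their array block, chance value under 7%; compounds were printed on slides so no solution concentration is given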;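 also: about 2 pmol printed per array spot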
# ID4 binder: binders of human ID4 protein. P47928. small molecule microarray, Flag-ID4 binding, fluorescence F/B. calls only. actives 1.2% (n = 31,000). AID 624137;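 active = spot signal over background at p below 0.07 in all four prints; compounds were printed on slides so no solution concentration is given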;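 also: a binder raises fluorescence above local background on the spot; about 2 pmol printed per array spot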
# Target sequence (P47928 whole entry, looked up): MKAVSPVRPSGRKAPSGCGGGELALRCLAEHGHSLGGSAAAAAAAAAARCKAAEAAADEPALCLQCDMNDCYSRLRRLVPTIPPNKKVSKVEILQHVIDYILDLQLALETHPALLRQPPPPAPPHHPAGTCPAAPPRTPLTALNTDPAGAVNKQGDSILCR
# Calls only; i = inactive; x = not tested or not shown; + = active, no number.
# Screens in order – p53 mut binder | c-Myc SMM | STAT3 binder | ID4 binder
C[C@H](CO)N1C[C@H](C)[C@H](CN(C)S(=O)(=O)c2cn(C)cn2)Oc2ccc(NC(=O)c3ccncc3)cc2CC1=O
 : i | i | i | i
Cc1cccc(C)c1OCC(=O)Nc1ccccc1C(=O)NC1CCCCC1
 : i | i | i | i
C[C@H]1CN([C@@H](C)CO)C(=O)Cc2cc(NC(=O)Cc3ccccc3)ccc2O[C@@H]1CN(C)C(=O)Nc1ccccc1
 : i | i | i | i
C[C@H](CO)N1C[C@H](C)[C@H](CN(C)C(=O)C2CCCCC2)OCCCC[C@H](C)Oc2ccc(NS(=O)(=O)c3cn(C)cn3)cc2C1=O
 : i | i | i | i
O=C(CN1C(=O)C2C3CCC(C3)C2C1=O)Nc1cccc(C(=O)O)c1 (configuration not stated)
 : i | i | i | i
COc1ccc(NC(=O)C(C)Sc2nnc3c4c(nc(-c5ccc(OC)cc5)n23)CC(C)(C)OC4)cc1 (configuration not stated)
 : i | i | i | i
COc1ccc(CN(C)C[C@@H]2OCCCC[C@@H](C)Oc3ccc(NC(=O)Nc4c(C)noc4C)cc3C(=O)N([C@H](C)CO)C[C@@H]2C)cc1
 : i | i | i | i
C[C@@H]1CN([C@@H](C)CO)C(=O)c2cccc(NS(C)(=O)=O)c2O[C@H]1CN(C)S(=O)(=O)c1cn(C)cn1
 : i | i | i | i
C[C@H](CO)N1C[C@H](C)[C@@H](CN(C)C(=O)Nc2ccc3c(c2)OCO3)Oc2ccc(NC(=O)CCC(F)(F)F)cc2C1=O
 : i | i | i | i
CCCC[C@H]1OB(O)C[C@H]2C1=C(COc1ccccc1)Cn1c(=O)n(-c3ccccc3)c(=O)n12
 : i | i | i | +
Cc1ccc(S(=O)(=O)Nc2ccc3c(c2)C(=O)N([C@H](C)CO)C[C@@H](C)[C@@H](CN(C)S(=O)(=O)c2ccccc2)OCCCC[C@@H](C)O3)cc1
 : i | i | i | x
C[C@H](CO)N1C[C@H](C)[C@@H](CN(C)C(=O)Nc2cccc3ccccc23)Oc2ccc(NC(=O)CCC(F)(F)F)cc2C1=O
 : i | i | i | i
C[C@H]1CCCCO[C@@H](CN(C)C(=O)Nc2ccccc2)[C@@H](C)CN([C@@H](C)CO)C(=O)c2cc(NC(=O)Cc3ccccc3)ccc2O1
 : i | i | i | i
C[C@H]1CN([C@@H](C)CO)C(=O)c2cc(NC(=O)C3CC3)ccc2O[C@@H]1CN(C)C(=O)Nc1ccccc1
 : i | i | i | i
Cc1noc(C)c1NC(=O)Nc1ccc2c(c1)C(=O)N([C@H](C)CO)C[C@H](C)[C@@H](CN(C)C(=O)NC(C)C)OCCCC[C@@H](C)O2
 : i | i | i | i
C[C@@H]1CCCCO[C@H](CN(C)C(=O)Nc2cccc3ccccc23)[C@@H](C)CN([C@H](C)CO)C(=O)c2cc(NC(=O)c3ccncc3)ccc2O1
 : i | i | i | i
C[C@@H]1CN([C@@H](C)CO)C(=O)Cc2cc(NC(=O)C3CC3)ccc2O[C@H]1CN(C)S(=O)(=O)c1cccs1
 : i | i | i | i
CCn1c(SCC(=O)Nc2ccc(F)cc2F)nnc1-c1cccs1
 : i | i | i | i
O=C(Nc1cc(C(F)(F)F)cc(C(F)(F)F)c1)c1cc(Cl)ccc1O
 : i | i | i | i
C[C@H]1CN([C@@H](C)CO)C(=O)c2cccc(NS(C)(=O)=O)c2O[C@@H]1CN(C)Cc1ccccc1
 : i | i | i | i

# Continued; the last 7 above are carried over.
# Screens in order – p53 mut binder | c-Myc SMM | STAT3 binder | ID4 binder
C[C@H]1CN([C@@H](C)CO)C(=O)c2cc(NC(=O)C3CC3)ccc2O[C@@H]1CN(C)C(=O)Nc1ccccc1
 : i | i | i | i
Cc1noc(C)c1NC(=O)Nc1ccc2c(c1)C(=O)N([C@H](C)CO)C[C@H](C)[C@@H](CN(C)C(=O)NC(C)C)OCCCC[C@@H](C)O2
 : i | i | i | i
C[C@@H]1CCCCO[C@H](CN(C)C(=O)Nc2cccc3ccccc23)[C@@H](C)CN([C@H](C)CO)C(=O)c2cc(NC(=O)c3ccncc3)ccc2O1
 : i | i | i | i
C[C@@H]1CN([C@@H](C)CO)C(=O)Cc2cc(NC(=O)C3CC3)ccc2O[C@H]1CN(C)S(=O)(=O)c1cccs1
 : i | i | i | i
CCn1c(SCC(=O)Nc2ccc(F)cc2F)nnc1-c1cccs1
 : i | i | i | i
O=C(Nc1cc(C(F)(F)F)cc(C(F)(F)F)c1)c1cc(Cl)ccc1O
 : i | i | i | i
C[C@H]1CN([C@@H](C)CO)C(=O)c2cccc(NS(C)(=O)=O)c2O[C@@H]1CN(C)Cc1ccccc1
 : i | i | i | i
C[C@@H]1CCCCO[C@@H](CN(C)S(=O)(=O)c2ccccc2)[C@@H](C)CN([C@H](C)CO)C(=O)c2cc(NC(=O)CCCN(C)C)ccc2O1
 : i | i | i | i
C[C@H](CO)N1C[C@H](C)[C@@H](CN(C)C)OCCCC[C@H](C)Oc2ccc(NC(=O)Nc3cccc4ccccc34)cc2C1=O
 : + | i | i | i
C[C@H](CO)N1C[C@H](C)[C@H](CN(C)C(=O)NC2CCCCC2)Oc2ccc(NS(=O)(=O)c3ccc(Cl)cc3)cc2C1=O
 : i | i | i | i
C[C@H]1CN([C@@H](C)CO)C(=O)Cc2cc(NC(=O)NC3CCCCC3)ccc2O[C@@H]1CN(C)S(=O)(=O)c1ccc(Cl)cc1
 : i | i | i | i
COc1ccc(S(=O)(=O)N(C)C[C@H]2Oc3ccc(NS(=O)(=O)c4ccc(Cl)cc4)cc3C(=O)N([C@@H](C)CO)C[C@@H]2C)cc1
 : i | i | i | i
O=C(CCCCCCC(=O)Nc1ccc(CO)cc1)NOCc1ccccc1
 : i | i | i | x
O=C(O)CCCCCCC(=O)Nc1ccc(C2OC(CSc3ccncc3)CC(c3ccccc3)O2)cc1 (configuration not stated)
 : i | i | i | +
COc1ccccc1NC(=O)CN(c1ccccc1OC)S(C)(=O)=O
 : i | i | i | i
C[C@H]1CN([C@@H](C)CO)C(=O)c2cccc(NC(=O)Nc3ccc(C(F)(F)F)cc3)c2O[C@H]1CN(C)S(=O)(=O)c1cccs1
 : i | i | i | i
COc1ccc(OC)c(C2C(C(=O)c3ccco3)C(=O)C(=O)N2Cc2cccnc2)c1 (configuration not stated)
 : i | i | i | i
COc1ccc(CN(C)C[C@H]2Oc3c(NC(=O)NC4CCCCC4)cccc3C(=O)N([C@@H](C)CO)C[C@@H]2C)cc1
 : i | i | i | i
C[C@@H]1CN([C@@H](C)CO)C(=O)c2cccc(NS(=O)(=O)c3ccccc3)c2O[C@H]1CN(C)C(=O)Nc1ccc2c(c1)OCO2
 : i | i | i | i
C[C@@H]1CN([C@H](C)CO)C(=O)c2cc(NS(=O)(=O)c3cn(C)cn3)ccc2O[C@H]1CN(C)C(=O)Nc1ccc(F)cc1
 : i | i | i | i
O=C(CSc1nnc(-c2cccc3ccccc23)o1)Nc1cccc(F)c1
 : i | i | i | i
COc1cc(/C=C/c2ccc(OC)c(OC)c2)c(CC=C(C)C)c(OC)c1
 : i | i | i | i
COc1ccc(CN(C)C[C@H]2Oc3ccc(NC(=O)Nc4ccc(C(F)(F)F)cc4)cc3C(=O)N([C@H](C)CO)C[C@H]2C)cc1
 : i | i | i | i
COC(=O)COc1c(Br)cc(C2C3=C(CCCC3=O)NC3=C2C(=O)CCC3)cc1OC
 : i | i | i | i
C[C@H]1CN([C@@H](C)CO)C(=O)c2cc(NC(=O)c3ccncc3)ccc2O[C@@H]1CN(C)S(=O)(=O)c1ccc(Cl)cc1
 : i | i | i | x
COC(=O)c1c(C)oc2ccc(NS(=O)(=O)c3cc(OC)ccc3OC)cc12
 : i | i | i | i
C[C@H](CO)N1C[C@H](C)[C@H](CN(C)S(=O)(=O)c2ccccc2)Oc2ccc(NC(=O)C3CCCCC3)cc2C1=O
 : i | i | i | x

# Single records (already shown). Values in the order: p53 mut binder | c-Myc SMM | STAT3 binder | ID4 binder
# Entry for `COc1cc(/C=C/c2ccc(OC)c(OC)c2)c(CC=C(C)C)c(OC)c1` : i | i | i | i
# Entry for `C[C@H]1CN([C@@H](C)CO)C(=O)c2cccc(NC(=O)Nc3ccc(C(F)(F)F)cc3)c2O[C@H]1CN(C)S(=O)(=O)c1cccs1` : i | i | i | i

# Later entries
# Screens in order – p53 mut binder | c-Myc SMM | STAT3 binder | ID4 binder
C[C@@H]1CN([C@@H](C)CO)C(=O)c2cccc(NS(=O)(=O)c3ccc(Cl)cc3)c2O[C@H]1CN(C)CC1CC1
 : i | i | i | i
CC(C)NC(=O)N(C)C[C@@H]1OCCCC[C@H](C)Oc2ccc(NC(=O)Cc3ccccc3)cc2C(=O)N([C@@H](C)CO)C[C@H]1C
 : i | i | i | i
C[C@@H]1CN([C@@H](C)CO)C(=O)c2cccc(NC(=O)C3CCOCC3)c2O[C@H]1CN(C)C(=O)Nc1ccc(C(F)(F)F)cc1
 : i | i | i | i
Cc1noc(C)c1NC(=O)N(C)C[C@H]1OCCCC[C@H](C)Oc2ccc(N(C)C)cc2C(=O)N([C@H](C)CO)C[C@H]1C
 : i | i | i | i
C[C@@H]1CN([C@@H](C)CO)C(=O)CCCn2nncc2CO[C@@H]1CN(C)C(=O)Nc1ccc2c(c1)OCCO2
 : i | i | i | i
C[C@@H]1CCCCO[C@H](CN(C)C)[C@@H](C)CN([C@@H](C)CO)C(=O)c2cc(NS(=O)(=O)c3ccc(Cl)cc3)ccc2O1
 : i | i | i | i
C[C@@H]1CN([C@H](C)CO)C(=O)c2cc(NC(=O)Nc3ccc4c(c3)OCO4)ccc2O[C@H]1CN(C)Cc1ccc(C(=O)O)cc1
 : i | i | i | i
C[C@@H]1CCCCO[C@H](CN(C)Cc2ccc3c(c2)OCO3)[C@H](C)CN([C@@H](C)CO)C(=O)c2cc(NC(=O)c3ccncc3)ccc2O1
 : i | i | i | x
Cc1nnc(SCC(=O)Nc2nsc(-c3ccc(Cl)cc3)n2)s1
 : i | i | i | i
C[C@H]1CCCCO[C@@H](CN(C)C(=O)Nc2ccccc2)[C@@H](C)CN([C@@H](C)CO)C(=O)c2cc(NC(=O)Nc3ccccc3)ccc2O1
 : i | i | i | i
C[C@@H]1CN([C@H](C)CO)C(=O)CCCn2cc(nn2)CO[C@H]1CN(C)Cc1ccc(C(F)(F)F)cc1
 : i | i | i | i
O=C1C[C@@](C(=O)NCc2ccccc2)(c2ccc([N+](=O)[O-])cc2)[C@@H](c2ccc(CO)cc2)N1C1CCCCC1
 : i | i | i | x
C[C@H](CO)N1C[C@H](C)[C@H](CN(C)C(=O)Nc2cccc3ccccc23)Oc2ncccc2C1=O
 : i | i | i | i
C[C@H]1CN([C@@H](C)CO)C(=O)c2cc(NC(=O)Nc3ccc(F)cc3)ccc2O[C@H]1CN(C)C(=O)NC1CCCCC1
 : i | i | i | i
C[C@@H]1CN([C@@H](C)CO)C(=O)c2cccc(NS(=O)(=O)c3cn(C)cn3)c2O[C@H]1CN(C)CC1CC1
 : i | i | i | i
Cc1sc2ncn(CC(=O)Nc3cccc(Cl)c3C)c(=O)c2c1-c1ccccc1
 : i | i | i | i
C[C@@H]1CN([C@H](C)CO)C(=O)c2cc(NC(=O)CCN3CCOCC3)ccc2O[C@@H]1CN(C)C
 : i | i | i | i
C=C1CCC2[C@](C)(CCC[C@]2(C)C(=O)O)[C@H]1CC/C(C)=C/C(=O)OC (some centres not stated)
 : i | i | i | i
COC(=O)Cc1cc(=O)n(-c2ccccc2)[nH]1
 : i | i | i | i
CC(C)NC(=O)Nc1cccc2c1O[C@H](CN(C)C)[C@H](C)CN([C@@H](C)CO)C2=O
 : i | i | i | i
COc1ccc(NC(=O)N(C)C[C@@H]2Oc3ccc(NC(=O)C4CC4)cc3CC(=O)N([C@H](C)CO)C[C@H]2C)cc1
 : i | i | i | x
C[C@@H]1CN([C@@H](C)CO)C(=O)c2cccc(NC(=O)C3CCOCC3)c2O[C@@H]1CN(C)Cc1ccc2c(c1)OCO2
 : i | i | i | i
Cc1ccc(S(=O)(=O)Nc2ccc3c(c2)C(=O)N([C@@H](C)CO)C[C@@H](C)[C@H](CN(C)C(=O)Nc2c(C)noc2C)O3)cc1
 : i | i | i | i
C[C@H](CO)N1C[C@H](C)[C@@H](CN(C)C(=O)Nc2ccc(F)cc2)Oc2ccc(NC(=O)Nc3ccccc3)cc2CC1=O
 : i | i | i | i
CC(C)NC(=O)N(C)C[C@H]1OCCCC[C@H](C)Oc2ccc(NC(=O)CCC(F)(F)F)cc2C(=O)N([C@H](C)CO)C[C@H]1C
 : i | i | i | i
O=C1c2ccccc2S(=O)(=O)N1CC(O)Cn1ccc2ccccc21 (configuration not stated)
 : i | i | i | +
CCc1ccc(OCC(=O)Nc2ccc3oc(-c4ccccc4)nc3c2)cc1
 : i | i | i | i
C[C@@H]1CN([C@@H](C)CO)C(=O)c2cccc(NS(C)(=O)=O)c2O[C@H]1CN(C)C(=O)NC1CCCCC1
 : i | i | i | i
O=C(C1=C[C@H](c2ccc(C(F)(F)F)cc2)C[C@H](OCc2ccc(CO)cc2)O1)N1CCN(Cc2ccccc2)CC1
 : i | i | i | i
COc1ccc(S(=O)(=O)Nc2ccc3c(c2)CC(=O)N([C@@H](C)CO)C[C@@H](C)[C@@H](CN(C)C(=O)Nc2ccccc2)O3)cc1
 : i | i | i | x
CC(=O)Nc1nonc1-c1nc2ccccc2n1Cc1ccc(Cl)cc1Cl
 : i | i | i | i
CCn1c(SCc2nc3ccccc3c(=O)[nH]2)nnc1-c1ccccc1Br
 : i | i | i | i
